GIRK2 act: activators of human GIRK2 potassium channels; P48051; HEK293-GIRK2 thallium flux, Thallos fluorescence; calls only for hits at 25 µM; hit rate 0.05% among 63,000; AID 1259325;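 active means among the strongest 0.2% of first-round signals and kept after retests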;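 further: first round at about 10 µM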
Target sequence (P48051 whole entry, looked up): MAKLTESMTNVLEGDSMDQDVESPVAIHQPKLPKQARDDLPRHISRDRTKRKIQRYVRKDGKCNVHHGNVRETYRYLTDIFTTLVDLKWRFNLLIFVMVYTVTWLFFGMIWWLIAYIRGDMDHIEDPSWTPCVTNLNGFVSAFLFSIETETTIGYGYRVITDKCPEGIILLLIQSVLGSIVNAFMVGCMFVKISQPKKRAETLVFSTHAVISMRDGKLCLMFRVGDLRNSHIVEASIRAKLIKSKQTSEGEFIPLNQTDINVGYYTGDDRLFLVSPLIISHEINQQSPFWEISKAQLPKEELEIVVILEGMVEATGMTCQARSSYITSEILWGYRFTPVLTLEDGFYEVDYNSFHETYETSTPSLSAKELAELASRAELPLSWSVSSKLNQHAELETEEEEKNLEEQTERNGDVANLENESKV
Calls only; i = inactive. The list is partial (hit frequency here may not be typical).

SMILES | GIRK2 act
COc1ccc(CCS(=O)(=O)NCC2(c3cccs3)CCOCC2)cc1 | i
Cc1ccccc1-n1ccnc1SCC(=O)NCC1CCCO1 (stereo not given) | i
O=C(NCc1ccc2c(c1)OCO2)C1(c2cccs2)CCCC1 | i
COCCn1c(=O)c2c(nc3n(-c4ccccc4F)c(-c4ccccc4)cn23)n(C)c1=O | i
O=C(Nc1cccc(C(F)(F)F)c1)N1CCN(c2ccc(Nc3ccccn3)nn2)CC1 | i
O=C(NC1CC(O)C(CO)C1)C1CC(=O)N(c2ccccc2)C1 (stereo not given) | i
CC(C)(C)c1ccc(NC(=O)NCCN2CCN(S(C)(=O)=O)CC2)cc1 | i
Cc1ccc(S(=O)(=O)NCC(=O)NCC(O)Cn2c3ccccc3c3ccccc32)cc1 (stereo not given) | i
CCOC(=O)c1scc(-c2ccccc2)c1S(=O)(=O)N1CCN(c2cccc(OC)c2)CC1 | i
COc1cc(NS(=O)(=O)c2ccc(OC(F)(F)F)cc2)ncn1 | i
COc1cccc2sc(N(CC3CCCO3)C(=O)c3c(-c4ccccc4Cl)noc3C)nc12 (stereo not given) | i
COc1ccc(S(=O)(=O)Nc2ccc3c(c2)CCCN3S(C)(=O)=O)cc1 | i
CCOc1ccc(C(=O)N2CCN(c3oc(-c4ccc(OCC)cc4)nc3C#N)CC2)cc1 | i
O=C(NCCc1ccccc1)N1CCC2(CCc3ccccc3O2)CC1 | i
CCc1noc(-c2ccnc(SCC(=O)Nc3cc(F)cc(F)c3)c2)n1 | i
COCCNC(=O)Nc1nc2ccc3sc(C)nc3c2s1 | i
C#CCOCC1CCN(S(=O)(=O)CCC)CC1 | i
O=C(c1ccc2c(c1)OCO2)N1CCN(S(=O)(=O)C2CC2)CC1 | i
COC(=O)Cn1c(=O)c2c(nc3n2CCCN3c2cc(OC)ccc2OC)n(C)c1=O | i
COc1ccccc1C(=O)NCC1CCN(c2ccccn2)CC1 | i
COc1cccc(C(=O)Nc2ccc(C)c(N3CCCC3=O)c2)c1OC | i
O=C(NCC1CCCO1)C(=O)Nc1ccccc1[N+](=O)[O-] (stereo not given) | i
CC(=O)N1CCCc2cc(S(=O)(=O)NCCOc3ccccc3)ccc21 | i
COc1ccc(-c2nc(C#N)c(N3CCN(C(=O)c4ccccc4C)CC3)o2)cc1OC | i
COc1ccc([N+](=O)[O-])cc1NC(=O)c1ccccc1NS(=O)(=O)c1ccccc1 | i
O=C(Nc1cccc2nsnc12)C1CCN(c2ccc(-c3ccc(F)cc3)nn2)CC1 | i
COc1ccc(-c2nnc(Nc3nc4cc(OC)c(OC)cc4s3)o2)cc1 | i
O=C(CSc1nnc(CCc2nc3ccccc3[nH]2)o1)NCc1cccs1 | i
O=C(CN1CC(c2nc(-c3ccco3)no2)C1)Nc1cccc(C(F)(F)F)c1 | i
Cn1nc(CNC(=O)c2cccn(C)c2=O)cc1C1CC1 | i
N#Cc1cnc(NC(=O)c2ccc3nsnc3c2)s1 | i
CSCCC(C)(O)CNC(=O)C(=O)Nc1cc2c3c(c1)CCN3C(=O)CC2 (stereo not given) | i
O=C(NCCc1ccccc1)c1csc(C(=O)NC2CC2)n1 | i
Cn1c(=O)[nH]c(=O)c2c1nc(NCCCN1CCOCC1)n2CCOc1ccccc1 | i
COc1ccc(CCNC(=O)CN(C)c2nc3c(Cl)cccc3s2)cc1OC | i
O=C(Nc1cnc(-n2cccn2)nc1)c1cccc(C(F)(F)F)c1 | i
CCOC(=O)N1CCC(NC(=O)Cn2ccn(-c3ccccc3OCC)c(=O)c2=O)CC1 | i
CC(C)(C)C(=O)NCCCOc1cccc2cccnc12 | i
O=C(NCCc1ccoc1)c1ccc(-c2ccccc2)cc1 | i
CN(C)S(=O)(=O)c1ccc(-c2nc(C#N)c(N3CCC(Cc4ccccc4)CC3)o2)cc1 | i
O=C(NCC#CCOc1ccc2c(c1)OCO2)c1ccc2nsnc2c1 | i
O=C(/C=C(O)/C=C/c1ccc(O)cc1)/C=C/c1ccc(O)cc1 | i
COc1ccc(C(CNS(=O)(=O)c2cc(F)ccc2F)N2CCN(C)CC2)cc1 (stereo not given) | i
COc1ccc(N2CCCS2(=O)=O)cc1NC(=O)NCCCc1ccccc1 | i
CS(=O)(=O)N1CCC(C(=O)N2CCN(c3ccc(-n4ccnc4)nn3)CC2)CC1 | i
NC1Nc2ccccc2C1(N)CC1NC(=O)C(Cc2ccccc2)NC(=O)C(Cc2ccccc2)NC1=O (stereo not given) | i
COc1ccccc1/C=C1\Oc2cc(OCC(C)=O)ccc2C1=O | i
O=C(Cn1cc(S(=O)(=O)N2CCCC2)ccc1=O)N1CCN(c2ccccc2F)CC1 | i
CSc1cccc(NC(=O)CCc2csc(NC(=O)c3ccc[nH]c3=O)n2)c1 | i
CN(CC(=O)NC1CCCC1)c1nc2c(C(F)(F)F)cccc2s1 | i
Cc1c(C(=O)NCCc2cccs2)oc2c1C(O)CC(C)(C)C2 (stereo not given) | i
COc1ccc(OCc2noc(CNC(=O)NCc3ccc(F)cc3)n2)cc1 | i
CN(Cc1ccccc1)C(=O)C1(c2cccs2)CCCC1 | i
Cc1cc(C(=O)Nc2nc3c(s2)CN(C(=O)/C=C/c2ccccc2Cl)CC3)no1 | i
O=C(c1ccncc1)N1CCN(CC(O)c2cccs2)CC1 (stereo not given) | i
COc1cccc2sc(N3CC(OC(=O)c4ccccc4Br)C3)nc12 | i
Cc1ccc(Cn2c(C3CC(=O)N(c4cccc(C)c4)C3)nc3ccccc32)cc1 (stereo not given) | i
O=c1[nH]c(=S)c2c(n1Cc1ccccc1)CCC2 | i
Cc1ccc(N2CC(C(=O)Nc3ccc(-n4nnc(C(=O)NC5CC5)n4)cc3)CC2=O)cc1 (stereo not given) | i
N#CC(C(=O)NCCc1ccccc1)c1nc2ccccc2nc1N1CCOCC1 (stereo not given) | i
More structures follow:
SMILES | GIRK2 act
COc1ccc(Cl)cc1NC(=O)CSc1nc2c(-c3ccc(C)cc3)csc2c(=O)n1C | i
O=C(CCc1ccccc1)N1CCN(Cc2nncn2C2CCCCC2)CC1 | i
Cn1c(C2CCCN(S(C)(=O)=O)C2)nn(CC(=O)Nc2ccc3c(c2)OCO3)c1=O (stereo not given) | i
O=C(c1ccccc1F)N1CCC(CSc2ccccn2)CC1 | i
CSc1cccc(-n2ccc(=O)c(-c3nc(-c4ccc5c(c4)OCO5)no3)n2)c1 | i
CN(CC(=O)NCCOc1ccc(F)cc1)c1nc2c(Cl)cccc2s1 | i
Fc1ccc(-c2csc(Nc3ccccn3)n2)cc1 | i
N#Cc1ccc(-c2csc(NC(=O)Nc3cccs3)n2)cc1 | i
COc1ccc(C(=O)N(C(=O)N2CCCCC2)c2ccc(Cl)cc2)c(OC)c1 | i
CC1=C(C(=O)Nc2ccc(C)c(C)c2)C(c2cccc(Br)c2)NC(=S)N1 (stereo not given) | i
Cc1cc(SCC(N)=O)n2nc(C)c(-c3ccc(Cl)cc3)c2n1 | i
Cc1cn2c3c(=O)n(Cc4ccccc4Cl)c(=O)n(C)c3nc2n1CCCN1CCOCC1 | i

16 compounds out of the list, ordered by molar mass, ascending.
SMILES | GIRK2 act
O=c1[nH]c(=S)c2c(n1Cc1ccccc1)CCC2 | i
O=C(c1ccncc1)N1CCN(CC(O)c2cccs2)CC1 (stereo not given) | i
N#Cc1ccc(-c2csc(NC(=O)Nc3cccs3)n2)cc1 | i
O=C(c1ccccc1F)N1CCC(CSc2ccccn2)CC1 | i
Cc1cc(SCC(N)=O)n2nc(C)c(-c3ccc(Cl)cc3)c2n1 | i
O=C(CCc1ccccc1)N1CCN(Cc2nncn2C2CCCCC2)CC1 | i
CN(CC(=O)NCCOc1ccc(F)cc1)c1nc2c(Cl)cccc2s1 | i
N#CC(C(=O)NCCc1ccccc1)c1nc2ccccc2nc1N1CCOCC1 (stereo not given) | i
CSc1cccc(-n2ccc(=O)c(-c3nc(-c4ccc5c(c4)OCO5)no3)n2)c1 | i
COc1cccc2sc(N3CC(OC(=O)c4ccccc4Br)C3)nc12 | i
Cc1cc(C(=O)Nc2nc3c(s2)CN(C(=O)/C=C/c2ccccc2Cl)CC3)no1 | i
CC1=C(C(=O)Nc2ccc(C)c(C)c2)C(c2cccc(Br)c2)NC(=S)N1 (stereo not given) | i
Cn1c(C2CCCN(S(C)(=O)=O)C2)nn(CC(=O)Nc2ccc3c(c2)OCO3)c1=O (stereo not given) | i
Cc1ccc(N2CC(C(=O)Nc3ccc(-n4nnc(C(=O)NC5CC5)n4)cc3)CC2=O)cc1 (stereo not given) | i
Cc1cn2c3c(=O)n(Cc4ccccc4Cl)c(=O)n(C)c3nc2n1CCCN1CCOCC1 | i
COc1ccc(Cl)cc1NC(=O)CSc1nc2c(-c3ccc(C)cc3)csc2c(=O)n1C | i

Other records
SMILES | GIRK2 act
CCc1ccc(S(=O)(=O)N2CCC(Cn3ccnc3C(C)C)CC2)s1 | i
Cc1nc2c3cnn(-c4ccc(C)c(C)c4)c3ncn2n1 | i
O=C(Cn1c(=O)n(CCCCC(=O)NC2CCCC2)c(=O)c2ccccc21)NCc1ccc(F)cc1 | i
COc1ccc(CNC(=O)N2CCC(Cn3ccnc3)CC2)cc1OC | i
CC(C(=O)NCCSc1nncn1C)n1nnc2ccccc2c1=O (stereo not given) | i
CCCNC(=O)C1CCC(Cn2c(=O)c3sccc3n(Cc3cc(C=O)ccc3OC)c2=O)CC1 (stereo not given) | i
Cc1cccc(C)c1NC(=O)CSc1nc2c(sc(=S)n2-c2ccc(Cl)cc2)c(=O)[nH]1 | i
c1coc(-c2nc3nc4ccccc4nc3n2CC2CCCO2)c1 (stereo not given) | i
Cc1cc(C(F)(F)F)nc(CCNC(=O)c2ccsc2)n1 | i
Cc1csc(-c2cc3ccc(OC(=O)C(C)(C)C)cc3oc2=O)n1 | i
Nc1c(C(=O)NC2CCCCC2)c2nc3ccccc3nc2n1/N=C\c1cccs1 | i
CC(C)(C)NCC(O)COC(C)(C)C (stereo not given) | i
CC(=O)NCC(=O)NC1CCN(c2ccc(-c3cccc(F)c3)nn2)CC1 | i
N#Cc1nc(-c2ccc(COc3ccccc3)o2)oc1N1CCCCC1 | i
Cc1ccccc1-n1nnc(C(=O)NC(C)CCc2ccco2)c1-c1ccncc1 (stereo not given) | i
CCCNC(=O)C1CCN(c2nc3ccsc3c(=O)n2Cc2ccc(F)cc2)CC1 | i
Cc1ccc(NC(=O)Cn2cccc(S(=O)(=O)N3CCC(C)CC3)c2=O)cc1Cl | i
CCCc1cc(=O)[nH]c(-n2nc(C3CC3)cc2NC(=O)c2ccc(-c3ccccc3)cc2)n1 | i
CCOCC(=O)N1CCC(c2nc(C)no2)CC1 | i
CC1(C)Cc2cccc(OCC(=O)NCCc3ccsc3)c2O1 | i
Cc1ccc(N2CC(c3nc(-c4ccc(Br)cc4)no3)CC2=O)cc1F (stereo not given) | i
Cc1cc(N2CCN(CCO)CC2)n2nc(C)c(-c3ccc(Cl)cc3)c2n1 | i
N#Cc1nc(-c2ccco2)oc1N1CCN(C(=O)c2ccc(Cl)cc2Cl)CC1 | i
CCCS(=O)(=O)N1CCN=C1SCc1cccc(F)c1 | i
Cc1cc(C)c2c(n1)sc1c(=O)n(CC(=O)Nc3c(C)cccc3C)c(C)nc12 | i
COc1ccc(CCn2c(C)nc3c(c(=O)c4ccccc4n3C)c2=O)cc1OC | i
COC(=O)c1ccc(NC(=O)COc2cc(C)nc(N3CCCCC3)n2)cc1 | i
Cc1[nH]c2ccc(OC(=O)N3CCOCC3)cc2c1C(=O)OC(C)C | i
COc1ccc(OC)c(-c2cc(C(=O)NCC3CCN(Cc4ccccc4SC)CC3)n(C)n2)c1 | i
COc1ccc(-c2csc3c(=O)n(Cc4ccccc4)cnc23)cc1OC | i
O=C(c1c(F)cccc1F)N1CCC(Oc2cnccn2)CC1 | i
Cc1ccc(CNC(=O)Cn2nc3c(Oc4ccccc4C)nccn3c2=O)cc1 | i
O=C(NCc1ccccc1OC(F)(F)F)c1cc(OCc2ccccc2)no1 | i
CCCS(=O)(=O)N1CCc2ccc(NS(=O)(=O)c3cc(C)c(Cl)cc3Cl)cc2C1 | i
COc1cc(C(=O)Nc2cc(C(=O)N3CCCC3)cn(C)c2=O)cc(OC)c1OC | i
CCOC(=O)c1cn(Cc2cc(F)cc(F)c2)nc1S(=O)(=O)N1CCCC(C)C1 (stereo not given) | i
CCC(C)C(NC(=O)Cc1ccccc1F)C(=O)Nc1nc2ccccc2[nH]1 (stereo not given) | i
C=C(C)[C@H]1CC[C@]2(C(=O)O)CC[C@]3(C)C(CCC4[C@@]5(C)CCC(=O)C(C)(C)C5CC[C@]43C)C12 (stereo not given in full) | i
O=C(c1ccc2nsnc2c1)N(Cc1ccsc1)CC(F)(F)F | i
CCOC(=O)c1ccc(CC2S/C(=C(/C#N)C(=O)Nc3ccccc3)N(c3ccccc3)C2=O)cc1 (stereo not given) | i
CC(C)(C)NC(=O)N1CCC(Oc2cnccn2)CC1 | i
Cc1cc(C)n(-c2cc(SCC(=O)NCc3ccc(C(F)(F)F)cc3)ncn2)n1 | i
CCOc1ccc(CCNc2nccn(-c3cc(C)cc(C)c3)c2=O)cc1OCC | i
COC1(CNC(=O)c2ccc(Cl)s2)CCSC1 (stereo not given) | i
O=C(Nc1cc2c3c(c1)CCN3C(=O)CC2)c1ccno1 | i
CCOc1cccc2sc(N3CCN(C(=O)Nc4c(F)cccc4F)CC3)nc12 | i
COc1ccc(C2CCN(C(=O)c3cc(C)oc3C)C2)cc1 (stereo not given) | i
Cn1nc(CNC(=O)c2c(F)cccc2Cl)cc1-c1ccccn1 | i

2 neighbouring records out of the list so far, quoted:
SMILES | GIRK2 act
O=C(c1ccccc1F)N1CCC(CSc2ccccn2)CC1 | i
CSc1cccc(-n2ccc(=O)c(-c3nc(-c4ccc5c(c4)OCO5)no3)n2)c1 | i

(list continues)
SMILES | GIRK2 act
Cc1cccc(-n2c(C)cn3c4c(=O)n(CC(N)=O)c(=O)n(C)c4nc23)c1C | i
CC(=O)Nc1ccc(S(=O)(=O)N2CCC(C(=O)O)CC2)cc1 | i
O=C(CCSc1ccccc1)N1CCC(Oc2cnccn2)CC1 | i
O=C(COc1cc(Cl)c(Cl)cc1Cl)Nc1nc(-c2ccncc2)cs1 | i
COc1ccc(C(=O)NCc2sc(-c3cccs3)nc2C)nn1 | i
Cc1ccc2cc(CCC#N)c(Cl)nc2c1 | i
CC(C)N(Cc1ccccc1)C(=O)c1nnn(-c2ccc(C(F)(F)F)cc2)n1 | i
